High-throughput results deposited in PubChem by National Center for Advancing Translational Sciences (NCATS).
Rango-impB inh = Rango-importin beta binding inhibition. Q14974. Rango CFP/YFP FRET sensor + importin beta, 45 min. Potency, µM (top dose mostly 92.2 µM), for inactives: top-dose inhibition of complex formation. hit rate 0.031% among 340,000. AID 540263; active = rising FRET ratio curve, often small or poorly fitted; inconclusive = mostly compound fluorescence or quenching in the first reads; inactive = flat curves in all reads;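 further: potency means the concentration at half of the fitted maximal effect; 0% = DMSO wells and 100% = buffer wells lacking importin beta; nearly all actives have a fitted effect of over 15% in size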
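Inhibition scored from the CFP 486 nm/YFP 530 nm FRET ratio 45 min after adding 0.125 microM importin beta to 50 nM Rango biosensor preincubated 5 min with compound (room temperature, PBS with DTT, Tween-20, BSA). No-importin wells as positive control.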
GLA inh pH 4.5 = blocks human alpha-galactosidase A at pH 4.5; P06280; purified enzyme, 4-MU-alpha-Gal fluorescence, pH 4.5; activity change, negative = inhibition, % at 105 µM; 230,000 tested, under 10 active; inconclusive = small, poorly fitted or top-dose-only inhibition, or a rising curve; inactive = flat fitted curve, though single readings scatter; no compound was filed as active;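 further: 0% = full activity with enzyme and -100% = basal without enzyme; dose as in the result columns while the protocol names 77 µM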
Target sequence (P06280 whole entry, looked up): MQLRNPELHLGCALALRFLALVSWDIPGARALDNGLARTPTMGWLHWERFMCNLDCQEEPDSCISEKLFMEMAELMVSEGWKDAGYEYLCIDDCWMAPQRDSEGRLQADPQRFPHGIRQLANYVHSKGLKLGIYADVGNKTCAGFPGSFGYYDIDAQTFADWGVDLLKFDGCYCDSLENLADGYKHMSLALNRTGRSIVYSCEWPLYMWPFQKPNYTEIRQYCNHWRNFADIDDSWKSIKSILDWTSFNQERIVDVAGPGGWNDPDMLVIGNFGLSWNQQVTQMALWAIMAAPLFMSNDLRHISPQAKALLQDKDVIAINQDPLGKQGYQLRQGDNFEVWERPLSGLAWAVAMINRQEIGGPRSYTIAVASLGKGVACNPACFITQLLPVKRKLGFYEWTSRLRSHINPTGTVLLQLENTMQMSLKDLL
Rango dissoc inh = prevents RanGTP from dissociating the Rango-importin beta complex | Potency, µM (titrated, usually from 46.1 µM), for inactives: at the top dose activity change, negative = inhibition | hit rate 0.071% among 340,000 | Biochemical FRET Rango-importin beta, RanGTP-induced dissociation | O95149+P62826; active means falling FRET ratio curve, often poorly fitted, with flat reads before Ran was added; inconclusive means other falling curves, or compound fluorescence or quenching; inactive means flat or rising ratio curve;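 further: potency means the concentration at half of the fitted maximal effect; % of control where 0% means no effect; nearly all actives have a fitted effect of over 45% in size; -100% = wells without RanGTP and RCC1; the record marks most hits as doubtful in a second field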
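FRET read at 45 min, room temperature: inhibitors block the CFP/YFP signal rise when RanGTP (0.6 uM Ran, 2 mM GTP, 0.2 uM RCC1) frees Rango (0.1 uM) from importin beta (0.25 uM). Pre-read after 5 min compound exposure flags interference.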
miR-21 FLuc = miR-21 reporter, rising signal; HeLa miR-21 FLuc reporter, luciferase, 48 h; Potency, µM (series often up to 38.3 µM), for the others: at the highest dose reporter change, positive = more light; 340,000 tested, under 10 active; AID 2288; active = well fitted rising curve with a large enough effect; inconclusive = small, poorly fitted or top-dose-only effect; inactive = no such curve, though single readings can be large or run the other way;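 further: % of control where 0% means no effect; miR-21 action dims this reporter so a rising signal means less miR-21 action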
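HeLa cells stably expressing CMV-driven firefly luciferase with a downstream miR-21 binding sequence, endogenously expressing miR-21, were treated with titrations (up to about 40uM final) for 48 hours at 37 degree Celsius. Luciferase luminescence was read after lysis.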
Active calls of the source: *; ? = inconclusive; . = no result given.

The line under a structure holds: Rango dissoc inh, miR-21 FLuc, GLA inh pH 4.5, Rango-impB inh
> COc1cc(C(=O)N/N=C/c2sc(=O)n(-c3ccccc3)c2Cl)cc(OC)c1OC
→ -2%, 4%, -28, 4.3%
> COc1ccccc1/C=N/N(C(C)=O)c1nc(-c2ccc(F)cc2)cs1
→ 2%, -30%, 5, 1.1%
> Cc1nc(C)c(C(=O)N(c2ccc(C)c(C)c2)C(C(=O)NCc2ccco2)c2ccccc2)s1 (centres undefined)
→ 3%, 3%, ?, ?
> CC(NC(=O)c1ccco1)C(=O)N1CC=C(c2ccccc2)CC1 (centres undefined)
→ 6%, ., ., 3.0%
> CCCCC(CC(O)COCCC)c1n[nH]c(=S)n1-c1ccccc1 (centres undefined)
→ -14%, -1%, -28, -0.8%
> Nc1ncnc(N2CCOCC2)n1
→ -11%, ., ., 0.8%
> COc1ccc(C(=O)c2ccccc2)cc1
→ -11%, -17%, -7, 0.1%
> S=C(NCc1ccc2c(c1)OCO2)NC1CCN(Cc2ccccc2)CC1
→ 0%, 7%, ., -0.2%
> O=C(CSc1nnc(-c2cccnc2)o1)OC1CCCCC1
→ 14%, -6%, 2, -0.6%
> O=C(Nc1cccnc1)c1cc(F)c(F)cc1Cl
→ -2%, -3%, 3, -0.2%
> O=C1CCCN1S(=O)(=O)c1ccc(F)cc1
→ 0%, -2%, ., 0.8%
> COc1ccccc1CCC(=O)Nc1ncc(C)s1
→ -7%, -7%, ., 1.7%
> Cc1ccccc1CNC(=O)CCc1ccccc1
→ 14%, -21%, 2, -0.9%
> CS(=O)(=O)Nc1ccc(C2=NN(S(=O)(=O)c3ccccc3)C(c3cccs3)C2)cc1 (centres undefined)
→ -23%, 6%, 2, ?
> CC1CCN(c2ccc(C(=O)OCC(=O)NCCN3C(=O)CSC3=O)cc2[N+](=O)[O-])CC1
→ 29%, 5%, 10, 2.2%
> Cn1ccsc1=NC(=O)c1ccc(=O)[nH]c1
→ 10%, -3%, ., 0.1%
> COc1cccc(C2=CC(=O)CCC2)c1
→ 0%, ., ., 0.2%
> COc1cc(CC(=O)OCC(=O)NC2CCCCCC2)cc(OC)c1OC
→ -12%, ., ., 1.0%
> Cc1ccc(/C=N/NC(=O)c2ccc(-c3ccccc3)cc2)o1
→ -8%, -9%, ., -3.9%
> Cc1ccc(-c2c(=O)n(OCc3ccccn3)c3ccccc3[n+]2[O-])cc1
→ ., -20%, 10, .
> c1ccc(CSc2nnc(-c3sccc3-n3cccc3)o2)cc1
→ 2%, -13%, -1, -0.3%
> Cc1nn(C)cc1CN1CCCC(C(=O)c2ccc(-c3ccccc3)cc2)C1 (centres undefined)
→ -1%, 0%, 6, 2.6%
> O=c1[nH]c(-c2ccccc2)c(-c2ccccc2)[nH]1
→ 0%, -13%, -17, 4.6%
> CCOC(=O)N1CCC(NC(=O)CS(=O)Cc2nc(-c3ccccc3C)oc2C)CC1 (centres undefined)
→ -15%, 11%, ., -1.9%
> O=C(Nc1ccccc1N1CCOCC1)C1CCCCN1S(=O)(=O)c1ccccc1 (centres undefined)
→ 4%, 0%, -1, -1.1%
> O=C(Nc1scc(-c2ccccc2)c1C(=O)O)c1ccco1
→ 3%, -20%, -3, -3.4%
> CCN(CC(=O)Nc1c(F)cccc1F)C(=O)c1n[nH]c2ccccc12
→ -6%, -5%, ., 12%
> CCCc1nc2ccccc2c(=O)n1CC(=O)c1ccccc1
→ -21%, -2%, 2, 4.4%
> CC[C@@]1(c2ccccc2C)C(=O)N(C(=O)OC)N1C(=O)OC
→ 7%, 2%, ., 0.5%
> O=C(NCc1ccco1)c1scc2c1OCCO2
→ 2%, 6%, -5, -3.9%
> Cc1ccc(C(=O)CCC(=O)O)cc1
→ ., -2%, 4, .
> COc1ccc(C)cc1NC(=O)NNC(=O)c1cc2ccccc2cc1O
→ ?, 0%, ., ?
> N#Cc1nc(COc2ccccc2)oc1N1CCN(c2cccc(Cl)c2)CC1
→ -4%, -5%, -3, 0.4%
> CCOC(=O)C1C(=O)C=C(c2ccccc2)CC1c1ccccc1 (centres undefined)
→ 13%, ., ., 2.9%
> CCN(CC)c1nc(C)c(C(C)=O)cc1C#N
→ 9%, 4%, 12, -2.9%
> CCCN(CC(=O)Nc1ccc(F)c(F)c1F)C(=O)c1cc(S(=O)(=O)N(C)C)ccc1N1CCCC1
→ 26%, ., ., 2.7%
> CCN(CC)S(=O)(=O)c1ccc(OC)c(NC(=O)c2cccc([N+](=O)[O-])c2C)c1
→ -12%, ., ., 1.7%
> O=C(CN1CCN(C(=O)C2CCN(C(=O)/C=C/c3ccccc3)CC2)CC1)Nc1ccccc1Cl
→ 7%, ., ., 0.1%
> CC[C@@]12C(=O)N(c3ccccc3)C(=O)N1[C@H](c1ccc(Br)cc1)[C@@H]1C(=O)N(C(C)(C)C)C(=O)[C@@H]12
→ -12%, ., ., 1.2%
> CCC1(C)Cc2c(sc3c2c(=O)n(-c2ccccc2)c(=O)n3C)CO1 (centres undefined)
→ 2%, -5%, 1, 0.3%
> O=C(Nc1ccc(-c2csc(Nc3cccc(C(F)(F)F)c3)n2)cc1)c1cccc(C(F)(F)F)c1
→ -6%, 28%, -4, 3.3%
> CCc1cc(=O)[nH]c(SCc2ccc(C)cc2)n1
→ 0%, -4%, -6, -1.0%
> Cc1noc(NC(=O)c2ccc(Cl)c(Cl)c2)c1Cl
→ 16%, -15%, 4, 0.9%
> CCCCCCSc1ccc([C@@H]2[C@@H]3C(=O)N(C)C(=O)[C@@H]3[C@]3(C(=O)OC)CCCCN23)cc1OC
→ 0%, ., ., -0.3%
> CCOC(=O)c1oc2ccccc2c1NC(=O)c1ccccc1OC
→ -2%, -8%, -2, 1.5%

Single records, from the list above. Values in the order: Rango dissoc inh	miR-21 FLuc	GLA inh pH 4.5	Rango-impB inh
Listed for `CCN(CC)c1nc(C)c(C(C)=O)cc1C#N` = 9%	4%	12	-2.9%
Listed for `CCOC(=O)c1oc2ccccc2c1NC(=O)c1ccccc1OC` = -2%	-8%	-2	1.5%
Listed for `COc1ccc(C)cc1NC(=O)NNC(=O)c1cc2ccccc2cc1O` = ?	0%	.	?

(continued)
The line under a structure holds: Rango dissoc inh, miR-21 FLuc, GLA inh pH 4.5, Rango-impB inh
> Cc1ccc(S(=O)(=O)N(CC(O)CN2CCCCC2)c2ccccc2)cc1 (centres undefined)
→ -3%, -3%, -4, 0.7%
> CC(NC(=O)c1ccc(F)cc1Cl)C1CC2CCC1C2 (centres undefined)
→ -1%, -22%, ., 4.1%
> C=C(C)c1cccc(C(C)(C)NC(=O)N2CCCC2)c1
→ -1%, 1%, -12, 0.2%
> CC(C)(C)NC(=O)C1CC(=O)OC1(C)C (centres undefined)
→ 7%, -1%, -3, 3.2%
> CCOC(=O)c1c(C)[nH]c(C(C)=O)c1C
→ -3%, -19%, -9, -4.6%
> Cn1nc(-c2ccc(C(=O)NCCO)cc2)c2ccccc2c1=O
→ 8%, 0%, -5, 1.1%
> CC(C)(C)OC(=O)N1CCC(NC(=O)c2[nH]cnc2C(=O)N[C@@H](Cc2ccccc2)C(=O)OCc2ccccc2)CC1
→ -1%, 6%, -26, 0.2%
> COc1ccccc1NC(=O)CSc1nccn1Cc1ccc(F)cc1
→ ?, -6%, ., 0.4%
> O=C(O)c1ccccc1CSc1nc2ccccc2n1Cc1ccccc1C(=O)O
→ -10%, -1%, -2, ?
> Cc1cccc(NC(=O)CSc2nnc(C)n2Cc2ccccc2)c1
→ -4%, -2%, 9, ?
> CCCCN(C(=O)c1ccc(N2CCCC2=O)cc1)c1c(N)n(CC(C)C)c(=O)[nH]c1=O
→ -17%, ., ., 6.0%
> CC(=O)Nc1sc(NC(=O)c2ccco2)nc1-c1cccs1
→ 0%, 15%, ., 8.2%
> CCOc1ccc(NC(=O)Nc2ccc3c(c2)nnn3C)cc1
→ -23%, -13%, -3, -0.5%
> CCOCCSc1nnc2nc(C)cc(C)n12
→ 18%, -12%, 2, 8.0%
> COC(=O)c1c(C)[nH]c(C(=O)C(C)OC(=O)C2CC2)c1C (centres undefined)
→ 11%, ., ., -0.5%
> CNC(=O)c1ccc(NC(=O)C2CCN(S(=O)(=O)c3cccc(C(F)(F)F)c3)CC2)cc1
→ -17%, ., ., -2.5%
> CCOc1cc(S(=O)(=O)N(CC)CC)c(OCC)cc1-n1cnnn1
→ 2%, -7%, 7, -0.8%
> CC(=O)Nc1cccc(C(=O)OCC(=O)c2ccc(S(=O)(=O)N3CCCCC3)cc2)c1
→ 5%, ., ., -1.7%
> COc1cc(-c2noc(C)c2/C=C/c2ccc(OC(C)=O)cc2)cc(OC)c1OC
→ -5%, 9%, ., -2.9%
> Cc1cccc(N/C=C/C(=C(C#N)C#N)N(C)C)c1
→ 1%, -1%, -2, 2.8%
> COc1cc(NC(=O)Cc2ccc(F)cc2)cc(OC)c1OC
→ -1%, 16%, -2, 7.0%
> CCOc1ccc(S(=O)(=O)N2CCC(C(=O)N3CCN(c4ccccc4)CC3)CC2)cc1
→ -8%, -1%, ., 1.5%
> COC(=O)c1ccc(Sc2ccc(F)cc2)c(N)c1
→ 17%, -38%, 9, ?
> O=C(OCCCCN1C(=O)c2ccccc2C1=O)c1ccc(S(=O)(=O)N2CCCC2)cc1
→ -7%, 1%, 4, -3.0%
> Cn1c(SCC(=O)c2ccc(F)cc2)ncc(C(=O)Nc2ccccc2)c1=O
→ 13%, ., ., -1.4%
> O=C(c1ccco1)N1CCN(C(=O)C23CC4CC(CC(C4)C2)C3)CC1
→ 29%, 0%, ., 11%
> CCOC(=O)NC(=O)c1cn(Nc2ncc(C(F)(F)F)cc2Cl)c(=O)[nH]c1=O
→ -18%, -2%, ?, -0.9%
> CCC(=O)Nc1nnc(S(=O)(=O)N(CC(C)C)c2ccccc2)s1
→ 1%, 2%, ., 1.1%
> COc1cc(OC)c2c(-c3ccccc3)cc(=O)oc2c1C(CCN1CCN(c2ccccc2)CC1)c1ccc(N(C)C)cc1 (centres undefined)
→ 13%, 0%, -7, 4.4%
> COc1ccc(/C=C2\CCCc3c2nc2ccccc2c3C(=O)O)cc1OC
→ ., -1%, -14, .
> CCn1c(SCCC(=O)Nc2ccccc2)nnc1-c1ccc(OC)cc1
→ 6%, -5%, 2, -3.3%
> CC(=O)N1CCc2cc(S(=O)(=O)NCCC(=O)Nc3cccc(C)c3C)ccc21
→ -1%, 1%, -11, 3.6%
> Cc1ccc(N(CN2C(=O)C3CC=CCC3C2=O)C(=O)c2ccco2)cc1Cl (centres undefined)
→ ?, -1%, 5, ?
> O=C(CC1C(=O)NCCN1C(=O)c1ccc([N+](=O)[O-])cc1)Nc1cccc(Cl)c1 (centres undefined)
→ 2%, -3%, ., 0.5%
> CCC(=O)NC(=S)Nc1cccc(NC(=O)CC)c1
→ -17%, -7%, -2, 1.4%
> O=C(NCC1CCCO1)c1ccc(CS(=O)(=O)c2ccc(Br)cc2)o1 (centres undefined)
→ -17%, 0%, 3, 5.2%
> COc1ccccc1NS(=O)(=O)c1cc(C(=O)NC2CC(C)(C)NC(C)(C)C2)ccc1Cl
→ 2%, ., ., -0.3%
> CCOc1ccc2[nH]c(C)c(CN(C)C)c(=O)c2c1
→ -13%, 0%, 14, -3.3%
> Cc1cccc(N(CC(=O)NCc2ccccc2)C(=O)CCC(=O)Nc2nccs2)c1
→ -13%, -12%, ., 6.7%
> O=C(NC(O)C(=O)c1ccccc1)c1ccc(F)cc1 (centres undefined)
→ -7%, -2%, ., -1.2%
> Cc1ccc(N2C(=O)C3ON(c4ccccc4)C(c4ccncc4)C3C2=O)c(C)c1 (centres undefined)
→ -1%, 2%, -1, -2.7%
> NC(=O)C1(N2CCCCC2)CCN(C(=O)CSc2nc3ccccc3[nH]2)CC1
→ 0%, -3%, 0, 4.6%

The list is partial. The share of hits here may be higher or lower than overall.
